# 2A StopGo: High Throughput Screening for Foot and Mouth Disease Virus Antivirals. 410,000 compounds, 1.2% hits. Potency, µM (top dose mostly 57.9 µM), for the others: at the highest dose signal change, negative = less light. human cells with a luciferase reporter of 2A StopGo recoding; control for the full effect not named in the record; active = well fitted falling curve with a large enough effect; inconclusive = small, poorly fitted or top-dose-only effect; inactive = no such curve, though single readings can be large or run the other way; tested in HEK293T cells; note: % is set by controls: 0 for no effect and ±100 for the full control effect; nearly all actives have a fitted effect of over 45% in size; luciferase light after 4 h
# RE007 growth inh: qHTS Assay for Inhibitors of the HIV-1 protein Vpr. Potency, µM (highest dose often 92.2 µM), for the others: at the top dose activity change, negative = less growth. S. pombe RE007 Vpr strain, BacTiter-Glo ATP luminescence, 24 h; control for the full effect not named in the record. 360,000 compounds, 0.21% hits; active = well fitted falling curve with a large enough effect; inconclusive = small, poorly fitted or top-dose-only effect; inactive = no such curve, though single readings can be large or run the other way;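 note: % is set by controls: 0 for no effect and ±100 for the full control effect; nearly all actives have a fitted effect of over 50% in size; the assay follows cell death caused by Vpr and the record does not say whether a fall means rescue or toxicity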
#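 Fission yeast RE007 carrying one integrated HIV-1 vpr copy, seeded at OD 0.01 in PMG+AL medium with 23 nL pinned compound. Grown 24 h at 30 degrees; viability read by BacTiter-Glo luminescence after 5 min.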
# Cruzain Triton: qHTS Assay for Promiscuous and Specific Inhibitors of Cruzain (with detergent); Cruzipain (Trypanosoma cruzi), P25779; purified cruzain, Z-FR-AMC fluorescence, 0.01% Triton; Potency, µM, for the others: max response, negative = inhibition, hits mostly inhibitors; 200,000 compounds, 0.43% hits; active = well fitted curve in the direction sought with a large enough effect; inconclusive = small, poorly fitted or top-dose-only effect, or another doubt; inactive = no such curve, though single readings can be large; an effect the other way counts as inactive or inconclusive;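 note: plate controls were neutral wells for no effect and buffer without enzyme for full effect; nearly all actives have a fitted effect of over 40% in size; top concentration of the series not given in the record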
# Target sequence (P25779 123-467 limits assumed): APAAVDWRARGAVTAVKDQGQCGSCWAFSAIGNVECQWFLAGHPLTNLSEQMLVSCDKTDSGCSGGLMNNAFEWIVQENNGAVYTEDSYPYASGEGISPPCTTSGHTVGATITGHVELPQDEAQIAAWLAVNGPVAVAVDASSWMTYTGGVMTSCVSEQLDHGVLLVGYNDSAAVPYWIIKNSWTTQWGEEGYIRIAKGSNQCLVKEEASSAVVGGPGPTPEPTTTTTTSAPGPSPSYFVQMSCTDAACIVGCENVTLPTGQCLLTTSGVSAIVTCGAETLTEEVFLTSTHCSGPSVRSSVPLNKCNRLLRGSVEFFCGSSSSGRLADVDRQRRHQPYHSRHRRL
#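 Cruzain (1.5 nM) preincubated 15 min at RT with compound in 100 mM sodium acetate pH 5.5, 5 mM DTT, 0.01% Triton X-100. Reaction started with 2 uM Z-FR-AMC; AMC fluorescence (ex 360/em 450 nm) change over 60 s gave rate.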
# Marburg entry inh: qHTS for inhibitors of binding or entry into cells for Marburg Virus | Marburg virus pseudotyped entry inhibition, cell reporter; control for the full effect not named in the record; about a third of the inactives were read at about 46 µM | Potency, µM (doses to about 37.8 µM), without a hit: at the highest dose activity change, negative = inhibition, most hits filed as inhibitors | 300,000 compounds, 1.8% hits | AID 540276, 2011; active = well fitted inhibition curve with a large enough effect; inconclusive = small, poorly fitted or top-dose-only effect, or effect the other way; inactive = flat fitted curve, though single readings scatter; tested in HEK293 cells; about a fifth of its hits are not listed in these tables; note: % is set by controls: 0 for no effect and ±100 for the full control effect; luciferase read-out
# SARS PLpro yeast: qHTS of Yeast-based Assay for SARS-CoV PLP | S. cerevisiae expressing SARS-CoV PLpro, growth rescue; control for the full effect not named in the record | Potency, µM (doses to about 32.9 µM), for inactives: top-dose activity, positive = growth rescue | 330,000 compounds, 0.19% hits | AID 485353, 2010; note: 0% is about no effect; nearly all actives have a fitted effect of over 55% in size; growth read by luminescence after 48 h
# LASV entry inh: qHTS for Inhibitors of binding or entry into cells for Lassa Virus. 300,000 compounds, 1.2% hits. Lassa virus pseudotype entry inhibition, cell reporter; control for the full effect not named in the record. Potency, µM (titrated, usually from 37.9 µM), for the others: at the top dose activity change, negative = inhibition, hits mostly inhibitors. AID 540256, 2011; active means well fitted inhibition curve with a large enough effect; inconclusive means small, poorly fitted or top-dose-only effect, or effect the other way; inactive means flat fitted curve, though single readings scatter; tested in HEK293 cells; note: % is set by controls: 0 for no effect and ±100 for the full control effect; nearly all actives have a fitted effect of over 50% in size; luciferase read-out
# NS1 function inh: qHTS Assay for Inhibitors of Influenza NS1 Protein Function. S. cerevisiae slowed by influenza A NS1, growth recovery by OD600. Potency, µM (titrated, usually from 46.1 µM), for inactives: top-dose activity, positive = more growth. 270,000 compounds, 0.4% hits. AID 2326, 2010; note: actives are rising curves; nearly all actives have a fitted effect of over 50% in size
#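 Read-out: OD600 growth recovery of NS1-expressing budding yeast. Cells grown overnight at 30C in -URA glucose medium, washed, resuspended and diluted 1:100 in 2% galactose assay medium, pH 6.0. Same strain lacking NS1 served as positive control.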
# Cruzain inh noDet: qHTS Assay for Promiscuous and Specific Inhibitors of Cruzain (without detergent); Cruzipain (Trypanosoma cruzi), P25779; purified cruzain, Z-FR-AMC fluorescence, no detergent; Potency, µM, for the others: max response, negative = inhibition, usual class: inhibitors; 200,000 compounds, 2.3% hits; AID 1476, 2009; active = well fitted curve in the direction sought with a large enough effect; inconclusive = small, poorly fitted or top-dose-only effect, or another doubt; inactive = no such curve, though single readings can be large; an effect the other way counts as inactive or inconclusive;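 note: plate controls were enzyme without inhibitor for no effect and buffer without enzyme for full effect; nearly all actives have a fitted effect of over 40% in size; top concentration of the series not given in the record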
#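 Purified cruzain at 1.5 nM, pre-incubated 15 min with compound at room temperature in 100 mM sodium acetate pH 5.5, 5 mM DTT, 0.00005% Triton X-100. Reaction started with 2 uM Z-FR-AMC; AMC fluorescence increase over 60 s gives rate.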
# Active calls of the source: *; ? = inconclusive; / = not tested or not shown; & = joins results of further samples; [ ] = dose if it differs, or a comment. Unless noted, calls come from the whole dose curve; as a rule, active means well fitted rising curve with a large enough effect; inconclusive means small, poorly fitted or top-dose-only effect; inactive means no such curve, though single readings can be large or run the other way. Potency is the fitted concentration of half-maximal effect.
SMILES,2A StopGo,RE007 growth inh,Cruzain Triton,Marburg entry inh,SARS PLpro yeast,LASV entry inh,NS1 function inh,Cruzain inh noDet
COCCNC(=O)[C@@H]1CSC2c3ccccc3C(=O)N21 (some centres undefined),-7%,19%,/,2%,0%,3%,-1%,/
CN(C)C(=O)COC(=O)/C=C/c1ccccc1[N+](=O)[O-],17%,1%,2.3%,9%,-1%,4%,-3%,-8%
COc1cc(NC(C(=O)Nc2cccc(C(C)=O)c2)c2ccccc2)cc(OC)c1OC (centres undefined),8%,4%,-0.7%,-10%,-1%,-19%,-1%,27%
Cc1ccc(NCC(=O)c2ccc([N+](=O)[O-])cc2)cc1,68%[activator],-18%,/,?,-2%,-1%,/,/
Nc1cc(C(=O)c2ccccc2)ccc1N1CCOCC1,-2%,-3%,-4.0%,-10%,12%,0%,20%,-8%
COc1cccc2sc(NN)nc12,33%[activator],0%,/,-1%[46.1 µM],-14%,23%,/,/
C/C(=N\OC(=O)c1ccc(F)cc1)c1nccs1,6%,-15%,6.0%,-3%,-12%,14%,-25%,-1%
CCCC1SCC(C)(C)NC1=O (centres undefined),-19%,-13%,/,8%,/,-1%,/,/
Nc1nnc(SCCCOc2ccc(F)cc2)s1,17%,-2%,/,-21%[46.1 µM],0%,?,6%,/
C=CCn1c(CCNC(=O)c2cccs2)nnc1SCC(=O)Nc1cccc(F)c1,0%,10%,-1.0%,-2%,6%,2%,-2%,3%
CCOC(=O)C1CCN(C(=O)CCS(=O)(=O)c2cc3c(cc2Cl)NC(=O)CO3)CC1,-8%,/,-6.1%,/,/,3%[46.1 µM],/,9%
COc1cccc(C2=CC(c3cc(OC)ccc3OC)n3nnnc3N2)c1 (centres undefined),-40%,-25%,-6.4%,?,-3%,?,-22%,2%
Cc1nn(CC(=O)OCC(=O)NC(C)c2ccccc2)c(C)c1[N+](=O)[O-] (centres undefined),1%,-10%,/,/,1%,/,-3%,/
O=C(NCc1ccccc1Cl)c1ccc2oc(=O)n(Cc3ccccc3)c2c1,0%,/,-4.5%,/,/,?,/,3%
Cc1ccc(NS(=O)(=O)c2ccc(OCC(=O)N3CCN(C)CC3)cc2)cc1,10%,-5%,/,1%,0%,-16%,12%,/
CC1CC(=O)Nc2ccccc2N1S(=O)(=O)c1ccc(Cl)cc1 (centres undefined),-4%,-7%,/,/,1%,/,4%,/
O=C(CCNC(=O)C1CCN(S(=O)(=O)c2ccccc2)CC1)NCc1ccccn1,-18%,4%,/,/,-2%,/,8%,/
O=C(CNc1cccc(C(F)(F)F)c1)N/N=C/c1cccc(Br)c1,-1%,7%,-15%,?,23%,?,-4%,3%
Cc1cc(C)cc(N(C(=O)c2csnn2)C(C(=O)NC(C)(C)C)c2cccs2)c1 (centres undefined),/,0%,4.6%,?,6%,-5%,10%,5%
COc1ccc(OC)c(C2=NO[C@@](CC(=O)O)(C(=O)Nc3ccc4c(c3)OCCO4)C2)c1,-11%,11%,/,0%[46.1 µM],2%,16%[46.1 µM],-1%,/
CCc1c(C)nc2ncnn2c1N1CCCC(C(=O)NCCc2ccccc2)C1 (centres undefined),-6%,6%,3.5%,-23%,1%,2%,-3%,2%
Cc1ccccc1NC(=O)c1ccccc1,12%,0%,4.5%,-1%,5%,15%,-2%,-5%
CCOC(=O)N1CCN(C(=O)C2CCN(S(=O)(=O)c3ccc(OC)cc3)CC2)CC1,-21%,2%,/,/,1%,/,6%,/
Fc1ccc2c(c1)C1C=CCC1C(c1cc3c(cc1Br)OCO3)N2 (centres undefined),?,-13%,1.1%,?,-24%,-27%,3%,?
CC1CC(C)CN(C(=O)c2ccc(NC(=O)c3ccc(=O)[nH]c3)cc2)C1 (centres undefined),0%,6%,-0.4%,-24%,4%,-2%,6%,-3%

# Laid out differently: entries from further up
SMILES	2A StopGo	RE007 growth inh	Cruzain Triton	Marburg entry inh	SARS PLpro yeast	LASV entry inh	NS1 function inh	Cruzain inh noDet
Cc1ccc(NCC(=O)c2ccc([N+](=O)[O-])cc2)cc1	68%[activator]	-18%	/	?	-2%	-1%	/	/
CC1CC(=O)Nc2ccccc2N1S(=O)(=O)c1ccc(Cl)cc1 (centres undefined)	-4%	-7%	/	/	1%	/	4%	/
CCCC1SCC(C)(C)NC1=O (centres undefined)	-19%	-13%	/	8%	/	-1%	/	/

# (cont.)
SMILES,2A StopGo,RE007 growth inh,Cruzain Triton,Marburg entry inh,SARS PLpro yeast,LASV entry inh,NS1 function inh,Cruzain inh noDet
CCN1CCN(c2cc(C)c3cc(NC(=O)Cc4ccccc4OC)ccc3n2)CC1,1%,-5%,-4.9%,-24%,1%,1%,5%,-6%
Nn1cc(-c2ccccc2)nc1SCC(=O)NCCc1ccccc1,-5%,14%,/,-19%[46.1 µM],-1%,-2%,11%,/
Cc1csc(SCC(=O)NC(C)c2ccc(F)cc2)n1 (centres undefined),-13%,-11%,/,-1%[46.1 µM],-4%,6%,/,/
CC(C)CCn1nnnc1C(c1ccc(F)cc1)N1CCN(C(=O)c2ccco2)CC1 (centres undefined),-4%,4%,3.6%,-13%,-2%,?,-1%,?
CCN(CC)C(=O)C1=C(C)Nc2nc3ccccc3n2C1c1ccc(Br)cc1 (centres undefined),-29%,/,-3.5%,-19%[46.1 µM],/,-3%[46.1 µM],/,12%
CC(CCc1ccccc1)NC(=O)CSc1ccccc1 (centres undefined),-1%,17%,-2.8%,?,-5%,3%,-11%,4%
Cc1cc(C)cc(C(=O)Nc2c(C(=O)Nc3ccccc3F)oc3ccccc23)c1,?,/,-1.5%,3%[46.1 µM],/,-5%[46.1 µM],/,13%
COc1ccc(NC(=O)c2oc3cc(C)c(C)cc3c2C)c(OC)c1,-33%,-5%,-7.0%,12%&12%,13%,-1%,-9%,3%
Cc1noc(C)c1COC(=O)c1cccnc1SCC(=O)Nc1ccc2c(c1)OCO2,-7%,-2%,0.1%,-21%&-21%,-3%,15%,-23%,3%
Cc1cccc(NC(=O)C2CCN(S(=O)(=O)c3cccc4nsnc34)CC2)c1,?,3%,-4.5%,-3%&-3%[46.1 µM],5%,10%[46.1 µM],/,1%
O=C(O)C(F)(F)S(=O)(=O)O,7%,3%,0.3%,5%,14%,12%,-8%,-1%
Cc1cc(C)cc(Nc2ncnc3sc4c(c23)CCCC4)c1,-21%,/,2.6%,/,/,1%[46.1 µM],/,5%
O=C(NC1CCSc2ccccc21)c1ccc(C(F)(F)F)cc1 (centres undefined),-23%,-3%,/,-8%[46.1 µM],12%,-5%,4%,/
CCN(C(=O)c1ccc(S(=O)(=O)N(C)C)cc1)C(C)C(=O)Nc1ccc(C)cc1 (centres undefined),-27%,-8%,/,17%,3%,4%,1%,/
C=CCn1c(C(C)(C)C)nc2ccccc21,-8%,-3%,/,-10%[46.1 µM],-1%,25%[46.1 µM],-2%,/
Cn1c(=O)c2c(nc(Sc3ccccc3N)n2C)n(C)c1=O,24%,2%,/,/,1%,/,1%,/
CC1=NN(C2=NS(=O)(=O)c3ccccc32)C(C)(O)C1 (centres undefined),-9%,7%,/,1%[46.1 µM],1%,-25%[46.1 µM],6%,/
CCOC(=O)c1sc(=NC(=O)c2ccccc2)n(C)c1C,65%[activator],-3%,/,?,0%,0%,/,/
O=C(NC(=S)Nn1cnc2c(cnn2-c2ccccc2)c1=O)c1ccccc1,0%,0%,-8.7%,1%,4%,1%,2%,-5%
Cc1ccc(Sc2c(C)nn(C(=O)c3ccc(Br)cc3)c2C)cc1,17%,/,-3.9%,2%[46.1 µM],/,-3%[46.1 µM],/,8%
O=C(OCc1cc(=O)n2nc(-c3cccs3)sc2n1)c1cccc(Cl)c1,3%,/,-2.1%,/,/,3%[46.1 µM],/,3%
CSc1nc2sc3c(c2c2nnnn12)CCCC3,15%,3%,-4.9%,4%&4%,2%,7%,-73%,-24%
Cn1c(SCC(=O)Nc2ccc(Cl)cc2)nc(O)cc1=O,-11%,14%,/,1%[46.1 µM],2%,11%,28%,/
O=C(C1=C[C@@H](c2ccc(Br)cc2)C[C@@H](OCCCCO)O1)N1CCN(Cc2ccccc2)CC1,?,3%,/,/,-1%,/,-4%,/
COc1ccccc1-c1nnc(SCCN2CCOCC2)n1-c1ccc(C)cc1,-19%,-14%,5.3%,-13%,2%,1%,-5%,9%
CC(OC(=O)c1cn(C)c2ccccc12)C(=O)N(C)c1ccccc1 (centres undefined),17%,4%,/,-7%,4%,-23%[46.1 µM],/,/
CCN(CC)c1ccc(N=Cc2c(O)n(-c3ccccc3)c(=O)[nH]c2=O)cc1,0%,8%,/,/,2%,/,4%,/
COc1cc(/C=N/NC(=O)CCn2nnc3ccccc32)ccc1O,14%,-15%,-4.2%,0%[46.1 µM],21%,3%[46.1 µM],13%,-5%
CN1CCN(c2oc(-c3ccccc3)nc2S(=O)(=O)c2ccc(Br)cc2)CC1,-8%,-2%,/,?,-4%,-5%,-19%,/
O=C(CNS(=O)(=O)/C=C/c1ccccc1)OC1CCOC1=O (centres undefined),8%,-4%,/,-7%[46.1 µM],-1%,12%[46.1 µM],/,/

# Gathered by group, the entries above with an NH in an aromatic ring.
SMILES,2A StopGo,RE007 growth inh,Cruzain Triton,Marburg entry inh,SARS PLpro yeast,LASV entry inh,NS1 function inh,Cruzain inh noDet
CC1CC(C)CN(C(=O)c2ccc(NC(=O)c3ccc(=O)[nH]c3)cc2)C1 (centres undefined),0%,6%,-0.4%,-24%,4%,-2%,6%,-3%
CCN(CC)c1ccc(N=Cc2c(O)n(-c3ccccc3)c(=O)[nH]c2=O)cc1,0%,8%,/,/,2%,/,4%,/

# High-throughput results deposited in PubChem BioAssay by National Center for Advancing Translational Sciences (NCATS).
